# Source: PubChem BioAssay
# gsp ag: activates gsp, the McCune-Albright syndrome mutation. AID 624287. Potency, µM (series often up to 76.9 µM), for the others: at the top dose activation (cAMP increase), hits mostly activators. gsp mutant cells, cAMP HTRF, 30 min; control for the full effect not named in the record. actives 0.13% (n = 340,000); active = well fitted activation curve with a large enough effect; inconclusive = small, poorly fitted or top-dose-only effect, or another doubt; inactive = no such curve, though single readings can be large or run the other way; cell line not stated here;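 further: phosphodiesterase inhibitor Ro 20-1724 added with compounds to block cAMP breakdown; potency means the concentration at half of the fitted maximal effect; nearly all actives have a fitted effect of over 60% in size; about a fifth of the inactives were tested at one dose only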
#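 Cells stably selected in G418 were plated at 2000/well, grown 16-24 hr, then given compounds in DMSO with the PDE inhibitor […] (300 uM solution added) for 30 min at 37C; cAMP was read by HTRF.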
# PINK1 expr mod: changes PINK1 expression; PINK1 immunofluorescence, high-content cytometry, 24 h; Potency, µM (highest dose often 76.6 µM), for inactives: at the highest dose activation (PINK1 increase), usual class: activators; actives 0.2% (n = 410,000); active = well fitted activation curve with a large enough effect; inconclusive = small, poorly fitted or top-dose-only effect; inactive = flat fitted curve, though single readings scatter; cell line not stated here;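 further: potency means the concentration at half of the fitted maximal effect; % of control where 0% means no effect; nearly all actives have a fitted effect of over 65% in size; a mitochondrial uncoupler was the plate control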
#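 A stable cell line was treated with compounds at 5 concentrations for 24 hours, with CCCP as control. PINK1 levels and mitochondrial localization were measured by immunofluorescence with mitochondrial, cell and nuclear markers after fixation, read by laser-scanning cytometry.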
# ClpP mod: qHTS Assay for Activators of ClpP; purified B. subtilis ClpP, FRET peptide cleavage, 20 min; Potency, µM (top dose mostly 57.5 µM), inactives show top-dose activity change, negative = active; actives 1.9% (n = 340,000); AID 651965, 2013; active = well fitted falling curve with a large enough effect; inconclusive = small, poorly fitted or top-dose-only effect; inactive = no such curve, though single readings can be large or run the other way; further: potency means the concentration at half of the fitted maximal effect; the source files actives as falling curves though it sought activators and does not explain the sign; nearly all actives have a fitted effect of over 65% in size; many hits overshoot -100%
# Target sequence (P80244 whole entry, looked up): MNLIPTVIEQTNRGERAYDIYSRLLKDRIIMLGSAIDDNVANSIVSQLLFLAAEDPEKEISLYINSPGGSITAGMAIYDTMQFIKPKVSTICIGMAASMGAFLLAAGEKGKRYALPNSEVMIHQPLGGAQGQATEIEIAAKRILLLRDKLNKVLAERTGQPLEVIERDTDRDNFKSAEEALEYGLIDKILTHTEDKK
#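 ClpP 10 microg/mL final, pH 8 Tris/KCl buffer with BSA, glycerol, Tween-20; compound pinned in; FRET-FV substrate; RT 20 min; Ex320/Em430; ΔFRET vs ADEP 5.8 microM, DMSO, no enzyme.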
# D2 agonist: human D2 receptor agonism in beta-arrestin assay. P14416. DiscoveRx PathHunter D2 beta-arrestin, luminescence, 90 min; 100% = 57 uM dopamine signal. activation, % (no concentration beside the values). actives 0.084% (n = 360,000). AID 624465; in the data active = activation above about 40%; inconclusive = about 15% to 40%; inactive = below about 15%; further: compound concentration not given in the record; the text of the record calls up to 30% inactive
# Target sequence (P14416 whole entry, looked up): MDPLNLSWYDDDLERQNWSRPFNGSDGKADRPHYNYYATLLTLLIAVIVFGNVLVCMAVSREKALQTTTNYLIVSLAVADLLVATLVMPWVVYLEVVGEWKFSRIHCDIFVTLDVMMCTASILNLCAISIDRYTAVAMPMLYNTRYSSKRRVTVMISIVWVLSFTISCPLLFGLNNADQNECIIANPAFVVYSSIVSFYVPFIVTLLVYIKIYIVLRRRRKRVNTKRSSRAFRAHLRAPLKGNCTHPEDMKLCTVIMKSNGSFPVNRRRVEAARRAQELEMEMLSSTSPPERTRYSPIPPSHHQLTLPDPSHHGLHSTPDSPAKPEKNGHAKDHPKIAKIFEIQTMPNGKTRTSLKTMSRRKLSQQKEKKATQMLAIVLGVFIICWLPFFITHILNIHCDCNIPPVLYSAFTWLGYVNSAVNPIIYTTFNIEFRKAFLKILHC
#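 Agonist mode: compounds alone added to overnight-plated D2 PathHunter cells for 90 min at 37 C, with 57 uM final dopamine (EC100) defining full response. Beta-arrestin recruitment detected by chemiluminescent reagent, read after 1 h at ambient temperature.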
# gsp antagonist: antagonizes gsp, the McCune-Albright syndrome mutation | gsp-mutant cells, cAMP HTRF, 30 min; control for the full effect not named in the record | Potency, µM (doses to about 76.9 µM), without a hit: at the top dose activity change, negative = inhibition, most hits filed as inhibitors | AID 624288 | actives 0.4% (n = 340,000); active = falling curve of any shape with a large fitted effect; inconclusive = falling curve, mostly with a smaller effect; inactive = flat or rising curve; cell line not stated here;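 further: intracellular cAMP measured with PDE inhibitor Ro 20-1724 present during compound exposure; potency means the concentration at half of the fitted maximal effect; on the % scale 0 is the no-effect control and ±100 the full control effect; nearly all actives have a fitted effect of over 65% in size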
#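 Measurement of cellular cAMP by homogeneous time-resolved fluorescence following a 30 min compound exposure at 37C. The PDE inhibitor […] was present throughout; the assay buffer was DPBS with 0.05% BSA and 0.005% Tween 20.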
# Sfp inh: Sfp phosphopantetheinyl transferase inhibition; Potency, µM, without a hit: max response, negative = inhibition, most hits filed as inhibitors; Q9F4F7; actives 3.5% (n = 310,000); Biochemical Sfp PPTase activity, qHTS; active means well fitted inhibition curve with a large enough effect; inconclusive means small, poorly fitted or top-dose-only effect, or another doubt; inactive means no such curve, though single readings can be large or run the other way;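 further: the enzyme is Sfp with the accession as filed and its product quenches rhodamine fluorescence; potency means the concentration at half of the fitted maximal effect; 0% = enzyme reaction without inhibitor and -100% = no enzyme wells; top concentration of the series not given in the record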
#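 Sfp 15 nM + cpd, 15 min RT; start w/ rhodamine-CoA 5 uM, BHQ-2-YbbR 12.5 uM (final); 50 mM Hepes pH 7.6, 10 mM MgCl2, 0.01% NP-40, 0.01% BSA; read 525/598 nm at 0 and 30 min.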
# Menin MLL FP FL: displaces fluorescein MLL peptide from human menin; Fluorescence polarization, fluorescein-MLL peptide displacement from menin; FP activity change, % at 61.4 µM; 290,000 tested, under 10 active; inconclusive = falling polarisation curve, or a change in total fluorescence; inactive = total fluorescence flat and polarisation flat or rising; no compound was filed as active; the % refers to the polarisation; negative = inhibition;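 further: % of control where 0% means no effect; inhibitors lower the polarisation; unlabelled MLL peptide was the positive control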
# * hit, by the source's call; ? = inconclusive; nt = no result given; & = joins results of further samples; [ ] = dose if it differs, or a comment.
SMILES,gsp ag,PINK1 expr mod,ClpP mod,D2 agonist,gsp antagonist,Sfp inh,Menin MLL FP FL
COc1ccc(C2/C=C\CN(C(=O)Oc3ccc(C(F)(F)F)cc3)CC(=O)N2Cc2ccc(F)cc2)cc1 (stereo unspecified),nt,2.9%,-3.5%,-2.8,0%,1%&10%,3.2&-4.5
CSc1c(CC(=O)NCCCO)n(Cc2ccccc2)c2ccccc12,-30%,2.1%,?,-4.5,-13%,-3%,-11
O=S(=O)(Cc1ccccc1Cl)c1ncn[nH]1,-11%[15.4 µM],-0.6%,nt,0.9,3%,?,1.9
CCN(c1ccc(NC(=O)CSc2ccc3c(c2)OCCO3)cc1)C(C)C,-33%[inhibitor],1.5%,-11%,-3.3,-18%,nt,nt
O=C(NC1CCCCCC1)c1cccnc1Sc1ccc(Cl)cc1,19%,6.1%,-2.4%,1.5,0%,27%,5.8
Cc1ccc(C)c(NC(=O)CN(C)C(=O)c2ccccc2OCc2ccccc2Cl)c1,?,-0.3%,-1.1%,-7.1,-3%,nt,nt
Cc1ccc(C(C(=O)NC2CCCCC2)N(CC2CCCO2)C(=O)CNC(=O)c2cccs2)cc1 (stereo unspecified),-4%,1.3%[38.3 µM],1.3%,-1.5,13%,13%,1.2
Cc1nn(C(=O)CCCn2cc([N+](=O)[O-])cn2)c(C)c1Cl,1%[15.4 µM],-0.4%,nt,0.0,-9%,6%,7.8
Cc1ccc(S(=O)(=O)N(C)C)cc1NC(=O)CN1C(=O)NC2(CCCc3ccccc32)C1=O (stereo unspecified),-57%[inhibitor],-0.3%,-3.4%,-2.7,7%,2%,3.3
COc1cccc(NC(=O)CSc2nnc(CNC(=O)c3ccccc3)n2C)c1,?,0.7%[38.3 µM],0.4%,-2.6,0%,13%,-1.1
CCCNC(=O)C(=O)Nc1ccc2c(c1)N(S(=O)(=O)c1cccs1)CCC2,-18%,3.8%,-0.3%,1.4,11%,nt,nt
COCCn1c(C)cc(C(=O)CSc2ncn[nH]2)c1C,-4%,0.0%[38.3 µM],-0.6%,-2.3,10%,-8%,-1.0
Cc1ccc(C)c(NC(=S)N(CCN(C)C)C(C)c2ccccn2)c1 (stereo unspecified),-6%[15.4 µM],-1.3%,nt,-0.4,9%,-4%,-9.4
CCOc1ccc(NC(=O)COc2ccccc2C(=O)NCc2ccccc2)cc1,-4%,1.5%,-15%,2.8,-16%,nt,nt
CCC(Sc1nc2ccccc2o1)C(=O)O (stereo unspecified),?,1.1%,nt,0.2,-5%,22%,-0.4
O=C(OCCN1CCCC1=O)c1cc(F)c(F)c(F)c1F,11%[15.4 µM],-1.6%,-2.0%,-8.6,9%,4%,5.4
O=C(CCN1C(=O)/C(=C/c2cccs2)SC1=S)Nc1cccc(C(=O)O)c1,-2%[15.4 µM],0.9%,nt,-2.2,10%,9%,?
COc1ccc(-c2csc(-c3cc4ccccc4oc3=N)n2)cc1,4%[15.4 µM],2.0%,-0.7%,12,5%,6%,-1.0
O=C(COCc1cc(-c2ccc3c(c2)OCO3)on1)N1CCN(c2ccccc2)CC1,-25%,0.7%&1.8%,-6.4%&-8.2%,-0.2,0%,-5%,nt
Cc1ccccc1N(C(=O)c1ccco1)C(C(=O)NC1CCCC1)c1cccnc1 (stereo unspecified),-7%,-0.7%,nt,-1.0,5%,-1%,nt
CCOc1cc(/C=N/NC(=O)C(N)=O)cc(Br)c1O,8%[15.4 µM],-1.6%,nt,-2.5,-12%,-10%,-0.5
CC1(C)CC(=O)C(C(O)c2cccc([N+](=O)[O-])c2)C(C)(C)N1 (stereo unspecified),-33%[inhibitor],1.1%,-2.9%,-3.4,5%,31%[activator],-5.8
O=C(CN(C(=O)CCC(=O)Nc1ccccn1)c1ccc(F)cc1)NCCc1ccccc1,21%[15.4 µM],1.0%,nt,1.6,-30%,16%,-5.4
Cc1ccc(SCC(=O)NCCCc2ccccc2)cc1,9%,-0.7%,nt,-2.1,3%,7%,-4.1
COc1cccc(NC(=O)CN(C)C(=O)c2ccc3c(c2)S(=O)(=O)N=C2CCCCCN23)c1,4%,6.3%,-1.3%,-9.3,-3%,nt,nt
COc1cc2c(C(=O)NCCCN3CCN(c4cccc(Cl)c4)CC3)cn(C)c(=O)c2cc1OC,18%,-1.4%,-4.6%,2.6,9%,-4%,4.0
Cc1ccc(S(=O)(=O)N=N/C=C2\C=CC=CN2O)cc1,-1%,-0.2%,-0.7%,-4.7,nt,nt,nt
O=C1CC(Cc2ccc(Br)cc2)C(=O)N1c1ccccc1 (stereo unspecified),-4%,0.2%,-2.4%,2.7,0%,3%,6.9
CCc1nnc(NC(=O)CN2C(=O)CCC2=O)s1,24%,0.4%,-3.2%,-1.5,-3%,20%,4.2
O=C1/C(=C/Nc2ccc3c(c2)OCO3)CCc2ccccc21,-40%[inhibitor],?,0.8%,3.5,?,35µM*,?
CCOc1ccc(S(=O)(=O)Nc2ccc(C(=O)NCC3(N4CCCCC4)CCCCC3)cc2)cc1,11%[15.4 µM],6.9%,nt,-4.8,2%,nt,nt
CCC(C(=O)N/N=C/c1cccnc1)c1ccccc1 (stereo unspecified),6%,1.6%,-2.6%,-6.2,-1%,2%,nt
C=COC(=O)NC1CCc2cc(OC)c(OC)c(OC)c2-c2ccc(SC)c(=O)cc21 (stereo unspecified),?,7.1%,-2.4%,1.2,11%,nt,nt
O=c1c(-c2cccc(F)c2)nc2cncnc2n1Cc1ccccc1,nt,0.1%,nt,nt,nt,-27%,8.3
COC(=O)Oc1ccc(/C=N/NC(=O)CSCc2ccccc2Br)cc1OC,-12%,0.8%,-0.1%,-3.9,?,8%,5.2
COc1ccc(S(=O)(=O)/N=C2/NC(=O)/C(=C/c3ccco3)S2)cc1,6%,-0.1%,-1.9%,-4.6,-4%,-15%,?
Cc1cccc(N(CC(=O)N2CCCCCC2)S(C)(=O)=O)c1C,4%,0.3%,0.1%,-3.8,6%,7%,4.1
CCOC(=O)N1CCN(c2cc(C)c(C(C)=O)cc2F)CC1,-4%,1.4%[38.3 µM],-1.0%,4.2,-14%,-13%,-2.6
O=C(NNC(=O)C(Cl)Cl)c1cnn(-c2ccccc2)c1C(F)(F)F,-1%,-0.3%,2.1%,3.6,0%,28%,-0.6
Cc1ccc(OCC(=O)N/N=C\c2cn(Cc3ccccc3)c3ccccc23)cc1C,-5%[15.4 µM],0.8%,-2.5%,-4.4,16%,?,3.1

# Two of these compounds, set out differently.
COC(=O)Oc1ccc(/C=N/NC(=O)CSCc2ccccc2Br)cc1OC
  gsp ag: -12%	PINK1 expr mod: 0.8%	ClpP mod: -0.1%	D2 agonist: -3.9	gsp antagonist: ?	Sfp inh: 8%	Menin MLL FP FL: 5.2

COc1ccc(S(=O)(=O)/N=C2/NC(=O)/C(=C/c3ccco3)S2)cc1
  gsp ag: 6%	PINK1 expr mod: -0.1%	ClpP mod: -1.9%	D2 agonist: -4.6	gsp antagonist: -4%	Sfp inh: -15%	Menin MLL FP FL: ?

# Next part
SMILES,gsp ag,PINK1 expr mod,ClpP mod,D2 agonist,gsp antagonist,Sfp inh,Menin MLL FP FL
COc1ccccc1C(=O)Nc1ccc(Oc2nnc(-c3ccc(C)cc3)c3ccccc23)cc1,10%,-0.2%,1.3%,-2.1,-18%,8%,5.4
CC(C)(C)Sc1ccc(N)nc1,-31%[inhibitor],-0.1%,?,-0.8,18%,-19%,-1.5
Cc1ccc(-n2cccc2C(=S)N=P(N(C)C)(N(C)C)N(C)C)cc1,-54%[inhibitor],?,-1.9%,-6.3,1%,?,1.1
O=C1/C(=C\c2ccccc2)SC(=S)N1CCC(=O)N1CCCCC1CCO (stereo unspecified),-17%,2.3%,0.1%,3.1,9%,-2%,4.1
Cc1cc(C)c(NC(=O)Cn2nc(-c3ccccc3)nc2-c2ccccc2)c(C)c1,5%,12%,-1.9%,-1.2,11%,-13%,1.2
CC1(Cc2cccc(F)c2)C(=O)Nc2ccc(S(=O)(=O)NC3CCCCC3)cc21 (stereo unspecified),nt,0.0%,-2.4%,7.9,nt,nt,nt
CCOP(=O)(OCC)c1nc(-c2cccc3ccccc23)oc1N1CCOCC1,-2%[15.4 µM],-1.2%,-0.6%,-5.2,-18%,0%,0.6
Cc1ccc([C@H]2C(C(=O)O)=CC[C@@H](c3ccc(C)cc3)N2S(=O)(=O)c2ccccc2C)cc1,nt,-0.2%,-0.4%,-1.9,-15%,nt,nt
O=C(NCc1ccccc1)c1ccc(CS(=O)(=O)Cc2ccccc2F)o1,-18%,-0.3%,-1.4%,-3.0,1%,-5%,?
Cc1ccc(N(Cc2ccco2)C(=O)c2ccc(N3CCCCC3)c([N+](=O)[O-])c2)cc1,-22%,0.3%,0.3%,-1.0,-15%,-16%,4.7
COc1ccc(OC)c(S(=O)(=O)Nc2ccccc2C(=O)O)c1,4%,5.4%,-8.8%,-2.6,-18%,16%,-0.2
CCC(=O)Nc1nn(CC(C)C)c2nc3ccc(C)cc3cc12,53%,6.0%,?,2.5,-3%,15%,6.6
Cc1ccccc1N1CCN(C2CCCN(C(=O)CCC(=O)N(C)C)C2)CC1 (stereo unspecified),-35%,0.6%,0.3%,-3.0,4%,14%,7.0
CC(C)(C)C(=O)NC1CCN(S(C)(=O)=O)CC1,11%,1.4%[38.3 µM],1.0%,0.2,-1%,14%,0.8
Cc1nnc(NC(=O)CSc2cn(CCNC(=O)c3ccccc3)c3ccccc23)s1,21%,1.4%,1.7%,2.3,-9%,-19%,0.8
Cc1cccc(NC(=O)CNC(=O)c2ccc(-n3cncn3)c([N+](=O)[O-])c2)c1C,-2%[15.4 µM],2.1%,nt,2.2,-13%,nt,nt
O=C(CS(=O)(=O)c1c[nH]c2ccccc12)NC1CCCCC1,-19%,0.3%,-0.4%,-2.4,8%,8%,-1.2
CCCCC(CC)C(=O)Nc1cc(C(=O)NCc2ccc(C)cc2)ccc1N1CCC2(CC1)CC(c1cccc(Br)c1)=NO2 (stereo unspecified),nt,1.8%,-2.0%,-0.9,2%,nt,nt
